T cruzi repl = T. cruzi replication inhibition | T. cruzi beta-gal in NIH3T3, luminescence, 90 h | inhibition, % (no concentration beside the values) | actives 1.4% (n = 300,000);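 active = mean inhibition across valid replicates above about 55%, limit read from the data; inconclusive = mean below that limit but half or more replicates reach it; inactive = mean below it, under half of replicates reach it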;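 also: signal also drops with host cell toxicity which is not excluded here; 0% = plate median of DMSO wells and 100% = zero luminescence signal; higher percent means less beta-gal luminescence so fewer parasites; stock transfer was 50 nL into about 50 µL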
B2AR ag = agonists of human beta-2 adrenergic receptor inducing internalization. AID 504454. response, % (no concentration beside the values). actives 0.43% (n = 340,000). P07550. Am2.2-beta2AR cells, FAP receptor internalization, flow cytometry; reference of the scale not given here;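 active = response above a set limit, near 3 SD of response in nonfluorescent compounds, cut at about 42% in these data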;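 also: stock transfer was 100 nL into about 11 µL; a reference agonist was the positive control; negative values mostly stem from fluorescent compounds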
LANA-H2B inh = blocks KSHV LANA binding to histone H2A/H2B | AID 2629 | actives 0.6% (n = 320,000) | inhibition, % (no concentration beside the values) | cell-free LANA-H2A/H2B peptide, fluorescence polarization; in the data active = inhibition mostly above about 10%, no sharp cut-off; inactive = mostly below about 6.7%;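 also: stock transfer was 7.5 nL into about 10 µL; 0% = median of vehicle wells and 100% = median of positive control wells; one replicate is shown; the record names a cut of 25% in any replicate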
Target sequence (Q9QR71 whole entry, looked up): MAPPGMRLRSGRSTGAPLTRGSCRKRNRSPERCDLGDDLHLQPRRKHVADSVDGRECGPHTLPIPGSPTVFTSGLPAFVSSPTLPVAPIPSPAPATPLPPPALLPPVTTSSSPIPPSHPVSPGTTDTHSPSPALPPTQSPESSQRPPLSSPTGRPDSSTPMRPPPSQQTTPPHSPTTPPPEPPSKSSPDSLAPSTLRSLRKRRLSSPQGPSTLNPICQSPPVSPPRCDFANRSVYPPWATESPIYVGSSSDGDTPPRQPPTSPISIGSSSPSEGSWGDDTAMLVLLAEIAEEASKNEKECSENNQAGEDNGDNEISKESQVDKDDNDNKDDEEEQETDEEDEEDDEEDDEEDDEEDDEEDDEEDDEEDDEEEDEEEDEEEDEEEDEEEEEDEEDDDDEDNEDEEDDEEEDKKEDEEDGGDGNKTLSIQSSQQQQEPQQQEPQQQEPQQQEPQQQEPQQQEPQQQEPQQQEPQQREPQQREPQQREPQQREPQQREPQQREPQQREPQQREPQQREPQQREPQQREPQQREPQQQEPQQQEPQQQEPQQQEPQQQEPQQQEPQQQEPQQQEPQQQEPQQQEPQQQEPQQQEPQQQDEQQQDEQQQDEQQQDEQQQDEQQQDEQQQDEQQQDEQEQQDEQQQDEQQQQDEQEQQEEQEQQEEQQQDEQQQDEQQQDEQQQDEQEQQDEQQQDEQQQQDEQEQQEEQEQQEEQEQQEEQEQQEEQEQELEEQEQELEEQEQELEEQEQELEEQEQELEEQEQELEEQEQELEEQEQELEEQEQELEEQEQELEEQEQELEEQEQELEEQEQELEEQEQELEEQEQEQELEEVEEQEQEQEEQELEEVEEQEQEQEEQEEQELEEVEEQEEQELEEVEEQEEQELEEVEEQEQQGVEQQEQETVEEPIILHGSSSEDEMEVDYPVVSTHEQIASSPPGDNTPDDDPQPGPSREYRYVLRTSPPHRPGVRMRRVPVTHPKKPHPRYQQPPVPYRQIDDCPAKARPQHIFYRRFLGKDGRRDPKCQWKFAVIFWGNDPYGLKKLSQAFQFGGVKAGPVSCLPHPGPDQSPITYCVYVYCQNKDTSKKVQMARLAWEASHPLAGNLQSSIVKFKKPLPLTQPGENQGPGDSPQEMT
A1 inh = inhibitors of the anti-apoptotic protein A1, read as caspase activation | MEF A1-2A-BIM cells, Caspase-Glo 3/7 luminescence, 3 h; percent of clofoctol response, vehicle zero | caspase activation, % (test concentration not listed) | actives 0.066% (n = 330,000);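 active = over half of replicate activation scores above 10%, or exactly half above 10 with the replicate mean above 10; inconclusive = replicate mean below 10 yet half the replicates above 10; inactive = over half of replicates below 10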;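 also: wells of about 30 µL received 50 nL stock; many hits fall short of the cut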
UCH37 inh = human UCH37 deubiquitinating enzyme inhibition. Q9Y5K5. inhibition, % (test concentration not listed). AID 588478. purified proteasome/UCH37, Ub-AMC cleavage fluorescence. actives 0.33% (n = 330,000);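 active = mean of two replicates above 20%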;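 also: 0% = compound-free wells with enzyme and 100% = wells lacking proteasome; stock transfer was 100 nL into about 20 µL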
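Schedule: 30 min plus 25 min, room temperature / Material: human UCH37 within purified proteasomes / Technique: AMC fluorescence intensity at 355/460 nm / Buffer or medium: pH 7.4 Tris-HCl (50 mM) with ovalbumin, ATP-MgCl2, DTT / Controls: wells without proteasome as full block, compound-free enzyme plus substrate as uninhibited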
Calb FLC = C. albicans growth modulation with fluconazole; growth inhibition, % (test concentration not listed); actives 0.57% (n = 300,000); C. albicans CaCi-2 (fluconazole-resistant clinical isolate) + fluconazole, Alamar Blue growth, 48 h;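 active = most replicates above 75%; inconclusive = exactly half above 75%; inactive = most below 75%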;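 also: all wells also contain fluconazole at 8 µg/ml as a sub-toxic cotreatment; 0% = median of DMSO wells and 100% = median of geldanamycin control wells; wells of about 8 µL received 7.5 nL stock; the first replicate is given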
Beta cell apopt = blocks beta cell apoptosis; INS-1E cytokine-induced death, ATP luminescence, 48 h; percent of positive-control rescue, neutral wells zero; protection from apoptosis, % (no concentration beside the values); actives 0.8% (n = 300,000);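 active = all replicates at 75% or more, or half of them and the mean; inconclusive = half reach 75% but not the mean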;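 also: 0% = cytokine-treated negative control wells and 100% = positive control rescue; higher means more ATP so stronger rescue from cytokine killing; wells of about 40 µL received 100 nL stock; the first replicate is given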
RanGTP-Impb inh = inhibitors of RanGTP-importin-beta interaction, primary screen, biochemical, FRET, CFP-Ran, YFP-importin-beta, homogeneous. cell-free CFP-Ran/YFP-importin-beta FRET ratio. inhibition, % (concentration not given with the values). actives 1.1% (n = 300,000). AID 2216;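 active = most replicates above 15%; inconclusive = exactly half above 15%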;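 also: 0% = DMSO wells and 100% = Ran loaded with GDP instead of GTP; wells of about 40 µL received 100 nL stock; the first replicate is given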
Numbers without * were called inactive; ? = inconclusive; nt = no result given.

SMILES	T cruzi repl	B2AR ag	LANA-H2B inh	A1 inh	UCH37 inh	Calb FLC	Beta cell apopt	RanGTP-Impb inh
COC(=O)c1cc(NC(=O)CSc2nnc(CN3CCOCC3)n2C)ccc1Cl	6	0	9.1	0.1	1.6	6	-7	1.2
COC(=O)c1cc2ccsc2n1Cc1cc(=O)n2ccccc2n1	-6	19	-3.5	0.6	-2.0	5	2	-4.5
COc1ccc(OCCCC(=O)N(C)CC(=O)Nc2c(C)cccc2C)cc1	-17	-1	-1.7	-0.4	5.0	1	-1	1.9
CC(C)Sc1nc2c(c(=O)[nH]1)C(c1cccs1)C1=C(CC(C)(C)CC1=O)N2 (stereo unspecified)	1	0	4.8	-0.3	-11	8	-6	5.3
O=C(Nc1ccccc1F)c1ccc(-c2cccc([N+](=O)[O-])c2)o1	-1	-7	3.5	0.3	2.8	-6	-4	3.7
CCOC(=O)c1ccc(NC(=O)CSc2nc(SC)ns2)cc1	15	-6	-6.3	0.0	1.1	-15	-10	0.8
COc1ccc(S(=O)(=O)NC(CC(=O)NCCc2ccc(OC)c(OC)c2)c2ccco2)cc1 (stereo unspecified)	7	-1	nt	0.1	1.3	-20	3	-3.1
Fc1ccc2nc(Nc3nc4c(s3)CCCC4)sc2c1	27	6	4.1	-8.1	-20	-3	8	?
CCn1c(-c2ccccc2O)n[nH]c1=S	-15	5	-4.0	-1.7	-0.2	3	-5	0.4
O=C(O)CCn1cc(C2CC(c3ccccc3)=NN2c2ccccc2)c(-c2ccccc2)n1 (stereo unspecified)	-2	8	-4.9	0.2	nt	1	-2	-0.9
Cc1[nH]nc2nc(SCC(=O)NC3CCCCC3)n(-c3ccc(Br)cc3)c(=N)c12	-15	0	-6.7	-0.2	nt	4	52	0.0
NCCN1CCN(S(=O)(=O)c2ccc([N+](=O)[O-])cc2)C=C1c1ccc(Cl)cc1	nt	-5	17	-1.3	3.3	nt	-4	nt
Cc1ccc2c(CN3CCC(C)CC3)cc(=O)oc2c1C	0	0	-1.7	-0.1	5.0	1	4	3.4
Nc1nc2ccc(C(=O)NCCOC(=O)C3CCCCC3)cc2s1	-9	-4	-0.1	-0.5	-0.3	12	-3	-1.9
CC(=O)/C(=N/Nc1ccc(Br)cc1)N1CCCc2ccccc21	38	3	0.1	0.7	nt	26	-2	-1.5
O=C(NC1CCCCC1)C(c1ccccc1F)N(Cc1ccco1)C(=O)Cn1nnc2ccccc21 (stereo unspecified)	20	4	1.0	0.0	-5.9	-4	nt	-1.2
CN(/N=C/c1ccc2c(c1)OCO2)c1nc(N2CCOCC2)nc(N2CCOCC2)n1	5	16	3.0	0.1	nt	10	-4	-0.1
COc1cccc(C(C(=O)NC(C)(C)C)N(C(=O)CCC(=O)Nc2cc(C)on2)C(C)(C)C)c1OC (stereo unspecified)	10	12	1.5	0.7	4.9	-6	-15	-4.4
CCCCCC(O)(CCCCC)C(=O)NNc1ccccc1	23	5	0.4	0.2	1.7	-26	4	-0.3
Cc1nc(-c2ccccc2)nn1-c1ccc([N+](=O)[O-])cc1	11	1	-4.1	-0.1	5.5	-9	-6	4.8
CNc1ccccc1C(C)(C)c1cc(-c2cccc(OC)c2)no1	15	-60	1.6	-0.2	3.4	1	61	-2.5
COc1ccc(OC)c(N/C(C)=C/C(=O)c2ccccc2)c1	56*	-9	-4.4	0.2	2.6	-9	2	-3.2
Cc1c(C(=O)N(Cc2ccc(N(C)C)cc2)CC2CCCO2)oc2ccccc12 (stereo unspecified)	21	-2	5.7	0.1	5.1	-7	-5	2.4
Cc1nn(-c2ccccc2)cc1C(=S)Nc1ccccc1	-21	-5	0.5	-0.4	2.2	-13	4	-0.9
Cc1cccc(NC(=O)NC(=O)c2ccccc2)n1	-17	-10	4.3	-5.2	2.7	3	-10	-3.5
COc1ccc(NC(=S)N2CCN(S(C)(=O)=O)CC2)cc1OC	6	-1	-3.8	-0.6	-1.3	12	-5	4.9
O=[N+]([O-])c1ccc2[nH]c3c(c2c1)CCCC3O (stereo unspecified)	9	4	-3.5	1.3	3.8	-1	-8	3.5
O=C(NCC1CCCO1)c1cc(-c2ccccc2)nc2ccc(Br)cc12 (stereo unspecified)	11	11	-13	0.7	-2.0	-6	8	-0.4
O=C(CN1c2cccc3cccc(c23)S1(=O)=O)NCCc1ccccc1	nt	-7	0.2	-0.3	-194	nt	7	nt
C=CCN(CC=C)C(=S)NC(=O)/C=C/c1ccccc1	4	-1	-0.1	-1.3	1.8	0	-1	-0.8

Record cards, as listed above.
COc1ccc(OC)c(N/C(C)=C/C(=O)c2ccccc2)c1 as listed: T cruzi repl = 56*; B2AR ag = -9; LANA-H2B inh = -4.4; A1 inh = 0.2; UCH37 inh = 2.6; Calb FLC = -9; Beta cell apopt = 2; RanGTP-Impb inh = -3.2
CN(/N=C/c1ccc2c(c1)OCO2)c1nc(N2CCOCC2)nc(N2CCOCC2)n1 as listed: T cruzi repl = 5; B2AR ag = 16; LANA-H2B inh = 3.0; A1 inh = 0.1; UCH37 inh = nt; Calb FLC = 10; Beta cell apopt = -4; RanGTP-Impb inh = -0.1

Later entries:
SMILES	T cruzi repl	B2AR ag	LANA-H2B inh	A1 inh	UCH37 inh	Calb FLC	Beta cell apopt	RanGTP-Impb inh
CSc1ccc(S(=O)(=O)N2CCCC2)cc1	0	13	-1.3	0.5	3.9	-1	-2	-1.8
Cc1ncc(CSc2ccc(Cl)cc2)c(CO)c1O	-9	-4	-2.2	0.5	0.8	-1	-7	12
Cc1ccsc1C(=O)N1CCN(c2ccccn2)CC1	-12	-7	-7.5	1.3	0.4	9	1	-0.4
CCOC(=O)C(C)Sc1nc2c(c(-c3cccs3)c1C#N)CCC2 (stereo unspecified)	27	-1	2.0	0.5	-39	-1	3	109*
COc1ccc(N2CCN(C(=O)CNC(=O)c3cccs3)CC2)cc1	-7	3	1.8	-1.0	0.7	3	2	4.5
Cc1cc(C)nc(N2CCC(C(=O)NC3CCCCCC3)CC2)n1	-10	-6	-0.1	0.0	-3.6	-22	-2	-3.0
CCC(=O)N1c2ccc(S(=O)(=O)NCCc3ccc(C)cc3)cc2CC1C (stereo unspecified)	1	7	14*	-0.2	0.5	-26	-2	-0.6
NC(=O)c1nsc(C(=O)N(c2ccccc2)C(C(=O)NCC2CCCO2)c2ccc3ncccc3c2)c1N (stereo unspecified)	2	0	1.0	1.0	-144	-7	-2	-2.9
C/C(=N\NC(=O)c1ccco1)c1cccc2ccccc12	1	-5	4.6	0.3	nt	-2	-5	2.1
CC12CCC(=O)N1C(C(=O)Nc1nc(-c3cc(F)ccc3F)cs1)CS2 (stereo unspecified)	6	-3	1.1	-0.1	5.0	-7	7	1.0
CCOc1ccc(S(=O)(=O)N2CCC(C(=O)NC3CCCC3)CC2)cc1	-4	-8	7.8	-0.8	2.8	-5	-2	-2.7
CCOC(=O)C1=C(CSc2nc3c(cc2C#N)CN(C)CC3)OC(N)=C(C#N)C1c1ccccc1 (stereo unspecified)	21	6	1.7	0.1	-13	1	-2	32*
Cc1ccccc1NC(=O)COc1coc(CN2CCN(Cc3ccccc3)CC2)cc1=O	20	25	0.5	0.6	0.7	1	nt	?
Cc1sc2nc(SCC(=O)N3CCOCC3)[nH]c(=O)c2c1C	-5	16	4.2	0.1	5.6	-4	4	5.9
Cc1cc2ncn(-c3nnnn3-c3ccccc3)c2cc1C	2	-3	-0.7	0.4	3.6	51	-4	5.0
CCn1cc(CNC(=O)C2CCC(=O)N(C3CCCCCC3)C2)cn1 (stereo unspecified)	-5	-4	-0.4	0.1	2.9	3	-3	1.7
C=CCn1c(SCC(=O)Nc2cccc(OC)c2)nnc1-c1cccnc1	-7	2	2.0	-0.4	-0.2	-7	-8	-2.3
NC(=O)c1cc(NC(=O)CCNS(=O)(=O)c2cccc(C(F)(F)F)c2)cc(C(N)=O)c1	-2	-1	2.2	0.1	3.2	0	-1	-1.3
CCCSc1nc2c(=O)[nH][nH]c(=O)c2n1Cc1ccccc1	0	8	3.9	-0.4	1.1	nt	-3	-2.7
CC(C)NS(=O)(=O)c1ccc(OCC(=O)NC(C)c2ccccc2)cc1 (stereo unspecified)	-5	-1	0.7	-0.4	2.0	32	-1	6.0
Cc1cc(Cl)ccc1OCCCC(=O)NCc1ccncc1	-3	-8	-0.6	0.2	0.2	1	-2	0.5
CCOC(=O)C1CCN(C(=S)Nc2cccc(C)c2C)CC1	3	-4	0.1	0.8	0.6	2	-3	?
Cn1c(CNC(=O)CNS(=O)(=O)c2ccccc2)cc(=O)n(C)c1=O	-8	7	1.5	-0.8	5.0	nt	-1	1.6
O=C(O)COc1c(Cl)cc(/C=C2/NC(=O)NC2=O)cc1Br	2	2	-2.1	0.5	8.9	-1	2	-0.9
CCOc1cc(/C=C2\C(=O)ON=C2c2ccccc2)cc(Br)c1O	-12	-21	-1.5	0.3	3.1	1	-6	1.1
O=C1/C(=C/c2cccnc2)N=C2CCCCCN12	-7	-17	0.8	1.2	7.4	6	-1	3.6
CCC(C)NC(=O)C(=O)NC1CCCC1 (stereo unspecified)	4	-1	nt	nt	5.0	-4	nt	1.6
COc1cccc(Nc2nc3ccccc3nc2-n2nc(C)cc2C)c1	19	1	-5.0	-0.7	-42	-1	-4	?
Cc1c(Cl)cccc1-n1c(-c2cccnc2)n[nH]c1=S	11	20	4.9	0.8	3.8	16	0	6.1
Cc1cc(N2C(=O)C3C4CC(c5ccccc5)C(C4)C3C2=O)no1 (stereo unspecified)	-8	-15	6.3	-0.1	2.1	-8	-6	-3.1
Cc1nc(N2CCOCC2)[nH]c(=O)c1C(O)C(Cl)(Cl)Cl (stereo unspecified)	8	-2	3.1	0.6	1.1	2	-5	1.8
Cc1ccc2nc(SCC(=O)Nc3ccc4c(c3)OCCO4)nc(=O)n2c1	2	-5	0.8	0.0	7.6	-4	0	6.9
O=C(CSc1ncn[nH]1)c1ccccc1	-8	-6	-6.1	-0.6	5.0	-8	0	-1.9
Cn1nc(C(=O)Nc2c(-c3ccccc3)nc3sccn23)c2ccccc2c1=O	-5	-3	-2.0	-0.1	8.8	4	0	-0.1
Cn1nnc(NC(=O)c2cccc(OCc3ccccc3)c2)n1	5	4	-3.7	0.0	2.0	-10	-7	4.8
COc1ccccc1N1CCN(C(=O)C2CCN(S(=O)(=O)c3ccc(Cl)cc3)CC2)CC1	nt	10	3.8	1.1	1.9	nt	-2	nt
O=C1C2CC=CCC2C(=O)N1c1nc2n(n1)C(c1ccccc1)CC(c1ccccc1)N2 (stereo unspecified)	4	2	-2.2	0.0	2.2	-8	-7	-1.0
CCOC(=O)c1nn(-c2ccc(OCC)cc2)c(C)c1C(C)=O	5	-8	-2.7	0.5	1.7	16	8	-4.9
COc1ccc(NC(=O)CSc2nnc3ccc(-c4ccccn4)nn23)c(OC)c1	3	-5	0.1	0.1	2.1	-3	5	0.1
Cc1cc(=O)oc2cc(OCC(=O)OCc3nnc(-c4ccccc4)o3)ccc12	12	12	-0.1	-1.3	-14	3	-1	-1.0
Cn1c(=O)c2ncn(CC(=O)Nc3nc(-c4ccc(Cl)cc4)cs3)c2n(C)c1=O	3	5	0.1	-0.3	0.9	-6	-4	-2.2
COCCNC(=O)C12CC3CC(CC(Cl)(C3)C1)C2	-7	-2	2.9	0.0	5.6	4	-6	0.6
